Sa growth 42C: inhibitors of Staphylococcus aureus growth at 42 °C | S. aureus RN4220 growth, OD600, 20 h; stronger effect = lower value | AID 720641 | relative growth, % (no concentration beside the values) | 0.53% of 170,000 active;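 active = growth at 42 °C up to 50% and 20 or more points under that at 30 °C, or under 10% at both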;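 also: 300 nL library stock went into each well; scaled to the means of positive and negative controls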
HCMV UL50-53 inh: inhibitors of HCMV UL50-UL53 nuclear egress complex interaction | 0.15% of 190,000 active | inhibition, % (concentration not given with the values) | AID 1918969 | HTRF UL50-UL53 interaction, normalized percent inhibition;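 active = both replicates at 50% or more, plus weaker picks with an unusually low signal ratio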;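 also: stock transfer was 100 nL into about 20 µL; 0% = negative control wells and 100% = wells with untagged competitor protein; inactives centre near -12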
GIV-Gai inh: inhibitors of GIV GBA-motif binding to rat Galpha-i3 | P08753 | Galpha-i3/FITC-GIV peptide fluorescence polarization, 90 min; stronger effect = lower value; scaled: aluminum fluoride 0%, vehicle 100% | percent of control (FP), % (concentration not given with the values) | 0.42% of 210,000 active;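 active = replicate mean at 85% of control or lower, very high polarization wells dropped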;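 also: wells of about 15 µL received 100 nL stock; the first replicate is given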
Target sequence (P08753 whole entry, looked up): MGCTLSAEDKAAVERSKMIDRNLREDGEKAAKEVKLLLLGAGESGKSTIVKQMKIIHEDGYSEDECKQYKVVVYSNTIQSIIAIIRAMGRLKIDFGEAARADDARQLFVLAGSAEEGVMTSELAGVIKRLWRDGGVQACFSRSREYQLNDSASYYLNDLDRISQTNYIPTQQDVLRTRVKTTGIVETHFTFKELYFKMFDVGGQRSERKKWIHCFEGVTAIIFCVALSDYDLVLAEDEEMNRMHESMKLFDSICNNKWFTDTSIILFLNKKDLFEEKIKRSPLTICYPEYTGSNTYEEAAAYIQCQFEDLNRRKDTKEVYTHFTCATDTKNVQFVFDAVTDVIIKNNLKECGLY
Sa growth 42C second temp: second read-out of Sa growth 42C, no call of its own (marks repeat the call); relative growth, %; measured here: growth at 30 °C;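 optical density after 20 h as mean of two plates; 100% = untreated growth and lower means inhibition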
An asterisk follows results filed as active; · = not tested or not shown; & = joins results of further samples.

nr	compound	Sa growth 42C	Sa growth 42C second temp
1	O=C1CSc2ccc(C(F)(F)F)cc2N1Cc1ccccc1	106	83
2	O=C(Cc1ccc(F)cc1)NC1CCCCC1	104	95
3	O=C(Cn1ncc2c(=O)oc3ccccc3c21)NCc1ccc(Cl)cc1	107	96
4	COCc1c(N)c(C)nc(Cl)c1C#N	125	75
5	COc1ccccc1CN(Cc1ccco1)c1cnc(S(C)(=O)=O)nc1C(=O)Nc1ccccc1Cl	97	85
6	NC(=O)c1ccccc1NS(=O)(=O)c1ccccc1	110	121
7	CC1=C(C(=O)N2CCCCC2)C(c2ccsc2)C2=C(CCCC2=O)N1 (stereo not drawn)	95	101
8	Cc1ccc(NC(=O)CSc2nc3ccc(NC(=O)c4cccs4)cc3s2)c(C)c1	98	90

nr	HCMV UL50-53 inh	GIV-Gai inh
1	-16	100
2	0	·
3	-24	99
4	-29	100
5	-31	97
6	0	99
7	1	101
8	-13	100

Going on with the list.
nr	compound	Sa growth 42C	Sa growth 42C second temp
9	CC1CCCCN1C(=O)c1ccc(Br)cc1 (stereo not drawn)	100	91
10	CN1CCc2c(sc(NC(=O)c3ccc(S(=O)(=O)N(C)C)cc3)c2C(N)=O)C1	85	84
11	Cc1ccsc1CN(C)C(=O)Cn1c(C)nc2scc(-c3cccs3)c2c1=O	144	88
12	CS(=O)(=O)N(Cc1ccccc1)c1ccc(C(=O)Nc2cccc(Cl)c2)cc1	95	90
13	Fc1ccc(-c2noc(CSc3ccc(-c4cccc(Cl)c4)nn3)n2)cc1	·	·
14	CCOC(=O)N1CN(Cc2ccccc2)Cc2c1oc1ccccc1c2=O	92	60
15	O=C(c1ccc2cn[nH]c2c1)N1CCN(c2cccc(Cl)c2)CC1	·	·
16	O=C(Nc1ccc(S(=O)(=O)Nc2ncccn2)cc1)c1cccc(Cl)c1	86	85

nr	HCMV UL50-53 inh	GIV-Gai inh
9	-2	·
10	-66	257
11	-13	·
12	-46	101
13	13	114
14	-15	103
15	-7	103
16	·	104

New compounds follow.
nr	compound	Sa growth 42C	Sa growth 42C second temp
17	CCc1cccc(N2C(=O)CS(=O)(=O)C23C(=O)N(Cc2ccc(F)cc2)c2ccc(C)cc23)c1 (stereo not drawn)	130	109
18	COc1ccc(CC(=O)NCc2nc3cccnc3n2Cc2ccccc2)cc1	116	84
19	COC(=O)Sc1nnc(-c2ccc(Br)cc2)o1	42	27
20	Cc1cccn2c(=O)c(/C=C(\C#N)c3nc4ccccc4s3)c(Oc3ccc(F)cc3)nc12	88	75
21	Cc1nn(-c2ccccc2)c2c1C(C(=O)NC1CCCC1)N(CCC1=CCCCC1)C(=O)CS2 (stereo not drawn)	·	·
22	CCCNC(=O)COc1ccc(OC)cc1	119	97
23	COC(=O)C1=C(NN(C)c2ccc(OC)cc2)CN(c2ccccc2)C1	93	83
24	CCCCNC(=S)Nc1ccc(SC(F)F)cc1	0.6*	0.0*

nr	HCMV UL50-53 inh	GIV-Gai inh
17	·	102
18	·	111
19	·	101
20	-42	126
21	-14	105
22	-4	101
23	-11	·
24	-21	·

(listing goes on)
nr	compound	Sa growth 42C	Sa growth 42C second temp
25	CCOc1cc(C(=O)Nc2ccc(-c3nc4cc(C)ccc4o3)cc2)cc(OCC)c1OCC	78	72
26	O=C1CC(=O)Nc2cc(S(=O)(=O)Nc3ccc(F)cc3Cl)ccc2N1	122	85
27	c1csc(-c2ccc(-c3ccon3)s2)c1	110	106
28	CCOc1ccccc1NC(=O)C(C)Sc1cc(-c2ccccc2)nc(C)n1 (stereo not drawn)	95	80
29	COc1ccc(C(=O)Nc2cc3c4c(c2)CCN4C(=O)CC3)c(OC)c1	78	86
30	O=C(CC12CC3CC(CC(Br)(C3)C1)C2)Nc1cccnc1	118	83
31	Cc1ccc(-c2noc(-c3ccc(NC(=O)C4CC(=O)N(c5cccc(C)c5)C4)cc3)n2)cc1 (stereo not drawn)	·	·
32	COc1cc(/C=N/NC(=O)c2ccc(O)cc2)ccc1OCC(=O)N1CC(C)OC(C)C1 (stereo not drawn)	108	110

nr	HCMV UL50-53 inh	GIV-Gai inh
25	-17	104
26	·	103
27	-3	109
28	-9	102
29	-28	106
30	-37	·
31	-2	105
32	1	·

A second format for some results above.
item	SMILES	Sa growth 42C	Sa growth 42C second temp	HCMV UL50-53 inh	GIV-Gai inh
16	O=C(Nc1ccc(S(=O)(=O)Nc2ncccn2)cc1)c1cccc(Cl)c1	86	85	·	104
17	CCc1cccc(N2C(=O)CS(=O)(=O)C23C(=O)N(Cc2ccc(F)cc2)c2ccc(C)cc23)c1 (stereo not drawn)	130	109	·	102
18	COc1ccc(CC(=O)NCc2nc3cccnc3n2Cc2ccccc2)cc1	116	84	·	111
19	COC(=O)Sc1nnc(-c2ccc(Br)cc2)o1	42	27	·	101
20	Cc1cccn2c(=O)c(/C=C(\C#N)c3nc4ccccc4s3)c(Oc3ccc(F)cc3)nc12	88	75	-42	126
21	Cc1nn(-c2ccccc2)c2c1C(C(=O)NC1CCCC1)N(CCC1=CCCCC1)C(=O)CS2 (stereo not drawn)	·	·	-14	105
22	CCCNC(=O)COc1ccc(OC)cc1	119	97	-4	101
23	COC(=O)C1=C(NN(C)c2ccc(OC)cc2)CN(c2ccccc2)C1	93	83	-11	·
24	CCCCNC(=S)Nc1ccc(SC(F)F)cc1	0.6*	0.0*	-21	·
25	CCOc1cc(C(=O)Nc2ccc(-c3nc4cc(C)ccc4o3)cc2)cc(OCC)c1OCC	78	72	-17	104
26	O=C1CC(=O)Nc2cc(S(=O)(=O)Nc3ccc(F)cc3Cl)ccc2N1	122	85	·	103
27	c1csc(-c2ccc(-c3ccon3)s2)c1	110	106	-3	109
28	CCOc1ccccc1NC(=O)C(C)Sc1cc(-c2ccccc2)nc(C)n1 (stereo not drawn)	95	80	-9	102
29	COc1ccc(C(=O)Nc2cc3c4c(c2)CCN4C(=O)CC3)c(OC)c1	78	86	-28	106
30	O=C(CC12CC3CC(CC(Br)(C3)C1)C2)Nc1cccnc1	118	83	-37	·
31	Cc1ccc(-c2noc(-c3ccc(NC(=O)C4CC(=O)N(c5cccc(C)c5)C4)cc3)n2)cc1 (stereo not drawn)	·	·	-2	105
32	COc1cc(/C=N/NC(=O)c2ccc(O)cc2)ccc1OCC(=O)N1CC(C)OC(C)C1 (stereo not drawn)	108	110	1	·

Additional structures follow.
nr	compound	Sa growth 42C	Sa growth 42C second temp
33	COc1cccc(-n2c(SCC(=O)Nc3cccc(C)c3)nc3c([nH]c4ccccc43)c2=O)c1	99	86
34	CN(C1CCCCC1)S(=O)(=O)c1ccc(S(=O)(=O)N(Cc2ccccn2)Cc2ccco2)cc1	91	100
35	NNC(=O)COc1ccc(Cl)cc1Cl	106	96
36	O=C(CSC1=NCCS1)c1ccccc1Br	117	90
37	Cc1nn(CC(N)=S)c(C)c1Br	100	86
38	COc1ccc(Br)cc1CNC(=O)c1cnc2sc(N3CCCCCC3)nn2c1=O	102	88
39	CC(C)(C)c1ccc(C(=O)NCC(c2ccc(Cl)cc2)N2CCOCC2)cc1 (stereo not drawn)	97	87
40	COc1ccc(CCNc2ncnc3c2cnn3-c2ccc(C)c(Cl)c2)cc1	120	91

nr	HCMV UL50-53 inh	GIV-Gai inh
33	·	100
34	-13	102
35	28	111
36	7	·
37	9	105
38	·	105
39	-2	111
40	·	102

(more compounds)
nr	compound	Sa growth 42C	Sa growth 42C second temp
41	CCOC(=O)N1CCC(NC(=O)C2CCN(c3ncnc4c3sc3cccc(F)c34)CC2)CC1	96	83
42	Cc1cc(NC(=O)C2CC(=O)N(Cc3ccccc3)C2)no1 (stereo not drawn)	81	90
43	CCC(=O)Nc1ccc(OCc2ncc(C(F)(F)F)cc2Cl)cc1	110	102
44	COc1ccc(S(=O)(=O)N2CCc3ccccc32)cc1C(=O)Nc1ccc2c(c1)OCCO2	110	109
45	CC1=CC(C)(C)NC(=O)N1c1ccc(C)cc1	99	82
46	CCOCCCNc1n[nH]c(=S)s1	57	62
47	CCCSc1nc2c([nH]c3ccccc32)c(=O)n1-c1ccc(F)cc1	98	89
48	CCN1C(=O)c2ccccc2S(=O)(=O)c2ccc(C(=O)N3CCN(c4cc(Cl)ccc4C)CC3)cc21	·	·

nr	HCMV UL50-53 inh	GIV-Gai inh
41	53*	101
42	-31	101
43	6	103
44	4	·
45	-26	106&108
46	-31	·
47	·	106
48	-18	103

(cont.)
nr	compound	Sa growth 42C	Sa growth 42C second temp
49	S=C(NCc1ccco1)Nc1ccc(N2CCOCC2)c2nonc12	102	94
50	COc1ccc(CCNC(=O)CSc2nc3c(cnn3-c3ccc(C)cc3)c(=O)[nH]2)cc1OC	97	87
51	O=C(NC(=S)/C(=C(/[O-])c1ccccc1)[n+]1ccccc1)c1ccccc1	93	81
52	CN(c1cc(C(F)(F)F)ccn1)N1C(=O)CSCC1=O	105	82
53	CSc1ccc(CNC(=O)c2ccccc2NC(=O)c2nsc3ccccc23)cc1	116	84
54	CCC(C)OC(=O)COc1ccc2c(=O)c(-c3ccc(OC)c(OC)c3)c(C(F)(F)F)oc2c1 (stereo not drawn)	95	90
55	O=C(Cc1noc2ccccc12)Nc1ccc(F)cc1	87	86
56	CCc1ccc(NC(=O)Cn2c(=O)n(-c3cc(OC)c(OC)c(OC)c3)c(=O)c3ccccc32)cc1	102	99

nr	HCMV UL50-53 inh	GIV-Gai inh
49	-80	105
50	·	100
51	-43	·
52	·	100
53	·	101
54	·	103
55	·	96
56	-20	107

Some values from the entries so far.
For Sa growth 42C, `COc1ccc(CCNC(=O)CSc2nc3c(cnn3-c3ccc(C)cc3)c(=O)[nH]2)cc1OC` is listed with 97
For Sa growth 42C, `S=C(NCc1ccco1)Nc1ccc(N2CCOCC2)c2nonc12` is listed with 102

Additional compounds follow.
nr	compound	Sa growth 42C	Sa growth 42C second temp
57	CC1COC(=O)C(NNc2ccc(Cl)c(Cl)c2)=N1 (stereo not drawn)	91	89
58	N#CCCSc1nnc(-c2ccncc2)n1Cc1ccccc1	90	64
59	O=C(NC1CCCC1)C1CCN(C(=O)N2CCOc3ccc(Cl)cc32)CC1	·	·
60	CC(C)c1nc(N)nc(=O)[nH]1	105	92
61	NC(=O)c1c(Nc2ccccc2)sc(C(=O)c2ccccc2)c1N	120	105
62	C=CCN1C(=O)C2(/C(=C(/O)c3ccccc3)C(=O)C(=O)N2CCOC)c2ccccc21 (stereo not drawn)	109	89
63	O=C(c1ccccn1)C1CC1c1ccccc1 (stereo not drawn)	·	·
64	COc1cc(-c2nc3ccccc3nc2-c2ccc(O)c(OC)c2)ccc1O	105	47

nr	HCMV UL50-53 inh	GIV-Gai inh
57	-25	103
58	-5	107
59	4	104
60	1	104
61	11	103
62	·	104
63	4	104
64	-64	99

Remaining list, next part:
nr	compound	Sa growth 42C	Sa growth 42C second temp
65	Cc1ccccc1C(=O)NCC(c1cccnc1)N1CCc2ccccc21 (stereo not drawn)	105	85
66	CCOc1cc(C=C2C(=O)NC(=S)NC2=O)ccc1OCCOc1ccc(C)c(C)c1	·	·
67	Cc1nnc(NCc2ccco2)s1	93	84
68	CCOC(=O)C(C)Sc1nnc(NC(=O)Nc2ccc(F)cc2)s1 (stereo not drawn)	25	6
69	NC(=O)c1c(NC(=O)C2CC2)sc2c1CCCC2	108	120
70	NNC(=S)NCCc1ccc(Cl)cc1	93	30
71	CC1=C(C(=O)c2ccccc2)C(c2ccc(C)cc2)NC(=O)N1 (stereo not drawn)	88	96
72	Cc1cc2c(cc1NC(=O)c1ccccc1Cl)n(C)c(=O)c(=O)n2C	96	89

nr	HCMV UL50-53 inh	GIV-Gai inh
65	-8	107
66	-9	92
67	4	94
68	-46	98
69	3&-33	·
70	-34	102
71	·	99
72	·	101

(cont.)
nr	compound	Sa growth 42C	Sa growth 42C second temp
73	Cc1ccc(-c2onc(C)c2C)cc1S(=O)(=O)NC1CCCCC1	93	79
74	N#C/C(=C\c1ccc(-c2cc(Cl)ccc2Cl)o1)C(=O)Nc1cccc2ncccc12	·	·
75	Cc1ccccc1S(=O)(=O)Cc1ccc(C(=O)NCCCN2CCC(C)CC2)o1	115	97
76	CC(C)(C)CC[n+]1ccc(C(N)=O)cc1	107	100
77	CC1CN(c2oc(COc3ccc(Cl)cc3Cl)nc2C#N)CC(C)O1 (stereo not drawn)	118	93
78	CN(C)C(=O)C(OC(=O)c1ccc(Cl)c(N)c1)c1ccccc1 (stereo not drawn)	92	85
79	CCN(CC)S(=O)(=O)c1ccc2c(c1)nnn2CCC(=O)Nc1cccnc1	·	·
80	CCN(CC(=O)Nc1cc(Cl)ccc1C)C(=O)CC1CCCC1	106	101

nr	HCMV UL50-53 inh	GIV-Gai inh
73	·	102
74	-12&-12&12	109
75	4	101
76	·	100
77	-5	113
78	-36	·
79	6	93
80	2	·

Other structures
nr	compound	Sa growth 42C	Sa growth 42C second temp
81	COc1ccc(CCN2C(=O)CC(C(=O)Nc3ccc(C(=O)O)cc3)SC2=Nc2ccc(F)cc2)cc1OC (stereo not drawn)	·	·
82	COc1ccc(-n2c(SCC(=O)Nc3ccc4c(c3)OCO4)nc3c([nH]c4ccccc43)c2=O)cc1	108	87
83	O=C(O)c1ccc2c(c1)N(Cc1ccc(F)cc1)C(=O)CO2	·	·
84	O=C(CCC(=O)N1CCc2cc(S(=O)(=O)NC3CCCCC3)ccc21)N1CCOCC1	·	·
85	Cc1ccc(S(=O)(=O)NCC(=O)OC2CCOC2=O)cc1 (stereo not drawn)	99	96

nr	HCMV UL50-53 inh	GIV-Gai inh
81	-27	101
82	·	100
83	-4	101
84	-12	102
85	-20	·

Assay outcomes: PubChem, ICCB-Longwood Screening Facility, Harvard Medical School
